# Screens as filed in PubChem.
# Mtb hypoxia rep – PubChem AID 1159583; actives 0.1% (n = 300,000); fluorescence inhibition, % (test concentration not listed); M. tuberculosis hypoxia-regulated fluorescent reporter, fluorescence;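 active means 35 to 45% if threefold the growth effect, above 45% if 1.5-fold the growth effect; inactive means the rest, general growth blockers included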;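 further: wells of about 50 µL received 100 nL stock; 0% = vehicle wells and 100% = reference inhibitor wells; whole bacteria with a GFP reporter of the hypoxia response; strong numbers were not always called active; many hits fall short of the cut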
# BJeLR viability – MLPCN primary cell-based screen for lethality selective to Ras in HRASV12 cells; BJeLR (HRASV12) viability, CellTiter-Glo ATP luminescence, 48 h; reference of the scale not given here; inhibition, % (concentration not given with the values); actives 0.17% (n = 300,000);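 active means replicate mean above 50%; inconclusive means above 50% but judged a plate artefact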;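 further: 50 nL library stock added to about 25 µL; numbers are from one replicate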
# Bead autofluor – counter-screen for toxin protease inhibitors: compound fluorescence. actives 3.1% (n = 360,000). compound autofluorescence counterscreen, microsphere flow cytometry; stronger effect = higher value. fluorescence intensity (no concentration beside the values);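 active means at least 3 SD above the mean of all compounds, about 16000 in these data; inconclusive means too few beads counted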;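 further: 100 nL of 1 mM stock went into each well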
# RN4220 kill – growth inhibition of S. aureus RN4220, primary screen, OD600; 16 h; inhibition, % (test concentration not listed); actives 0.33% (n = 330,000); AID 1259311, 2017;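 active means z-score of -3 or lower and OD600 up to 0.18 on both plates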;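 further: plate controls were untreated cells for no effect and reference antibiotic for full effect; stock transfer was 100 nL into about 80 µL; one replicate is shown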
# Sa ugtP lethal – growth inhibition of ugtP-null S. aureus, primary screen, RN4220 ugtP deletion, OD600 | actives 0.54% (n = 330,000) | growth inhibition, % (test concentration not listed) | 16 h; some inactives read as strong as hits;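 active means z-score under -3 and OD600 up to 0.15 on both plates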;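 further: plate controls were untreated wells for no effect and antibiotic for full effect; wells of about 80 µL received 100 nL stock; the first replicate is given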
# PrP UTR inh – inhibition of PrP 5' UTR reporter expression. cell-based PrP 5' UTR mRNA reporter, plate reader. inhibition, % (no concentration beside the values). actives 0.35% (n = 340,000);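 active means every replicate at 50% or more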;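 further: 0 = median of the neutral control wells; tested in H4 reporter cells; numbers are from one replicate; inactives centre near -14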
# Mtb hypoxia rep growth – recorded beside Mtb hypoxia rep, whose call it bears; growth inhibition, %; measured here: M. tuberculosis growth (absorbance);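 0% = vehicle and 100% = reference antibiotic; read after six days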
# * marks the source's active call; other numbers are inactive results; ? = inconclusive; . = not tested or not shown.
No.	SMILES	Mtb hypoxia rep growth	PrP UTR inh	BJeLR viability	RN4220 kill
1	Cc1c(O)nc(SCC(=O)Nc2cccc(C(F)(F)F)c2)n(-c2ccccc2)c1=O	-4	-11	6	-2.4
2	COc1ccc(C(CNC(=O)C(C)(C)Oc2ccc(Cl)cc2)N2CCCC2)cc1 (configuration not stated)	-9	-6	.	3.6
3	O=C(O)CCc1nn2c3ccccc3n(CCN3CCCCC3)c2nc1=O	-4	-15	2	1.0
4	COc1ccc(C(=O)/C=C/c2ccc(C)cc2)c(OC(=O)c2ccc([N+](=O)[O-])cc2)c1	.	-42	13	-0.7
5	CCc1ccc(NS(=O)(=O)c2ccc3[nH]cc(C(=O)N4CCCCC4)c(=O)c3c2)cc1	-5	-11	13	3.1
6	COC(=O)c1ccc(NC(=O)COC(=O)c2nc3nccc(C)n3n2)cc1	-1	-34	-3	2.2
7	CC1Cc2ccccc2N1S(=O)(=O)c1cccc(C(=O)OCC(=O)NCc2ccco2)c1 (configuration not stated)	9	-17	-1	1.5
8	COc1ccc(C/C(N)=N/O)cc1	4	-16	-3	4.1

No.	Mtb hypoxia rep	Sa ugtP lethal	Bead autofluor
1	10	7	5898
2	-3	1	3754
3	5	6	17537*
4	.	7	4466
5	-2	13	3430
6	-12	2	4399
7	18	0	4425
8	15	6	2499

# The last two records of the part before come first, to join the parts:
No.	SMILES	Mtb hypoxia rep growth	PrP UTR inh	BJeLR viability	RN4220 kill
7	CC1Cc2ccccc2N1S(=O)(=O)c1cccc(C(=O)OCC(=O)NCc2ccco2)c1 (configuration not stated)	9	-17	-1	1.5
8	COc1ccc(C/C(N)=N/O)cc1	4	-16	-3	4.1
9	COc1ccc(N(CC(=O)NCc2ccc3c(c2)OCO3)C(=O)CCC(=O)Nc2ccccn2)cc1	2	-10	-5	-1.6
10	Cn1cc(C(CO)Cc2ccccc2)c2ccccc21 (configuration not stated)	9	-20	.	5.5
11	Cc1cc(F)ccc1S(=O)(=O)Nc1ccccc1C(=O)Nc1ncn[nH]1	8	-4	5	11
12	CC(OC(=O)Cn1[nH]c(=O)c2ccccc2c1=O)C(=O)c1ccccc1 (configuration not stated)	-10	-19	6	5.5
13	OCCNc1nc(-c2cccnc2)nc2ccccc12	9	-16	2	4.6
14	CC(C)C[C@H](NC(=O)[C@H]1N2C(=O)c3ccccc3C2SC1(C)C)C(=O)N[C@@H](Cc1ccccc1)C(=O)O (some centres not stated)	.	-15	-3	5.2
15	Cc1ccccc1CN1C2=NCCN2c2ccccc21	0	3	6	-0.6
16	N#C/C(=C/C1=C(N2CCOCC2)C(=C/c2cccc([N+](=O)[O-])c2)/CC1)C(=O)Nc1ccccc1F	5	-9	.	1.2

No.	Mtb hypoxia rep	Sa ugtP lethal	Bead autofluor
7	18	0	4425
8	15	6	2499
9	-7	11	2227
10	21	4	3861
11	15	10	2947
12	9	14	4672
13	-9	-8	8047
14	.	-11	5688
15	-8	2	3512
16	7	-12	4429

# Next section:
No.	SMILES	Mtb hypoxia rep growth	PrP UTR inh	BJeLR viability	RN4220 kill
17	CCN(CC)S(=O)(=O)c1ccc(Cl)c(NC(=S)NC(=O)C2CCCC2)c1	-3	-12	.	16
18	COc1ccccc1N(CC(=O)Nc1cc(C)on1)S(=O)(=O)c1ccc(Cl)cc1	4	-3	22	3.5
19	O=C(NNC(=O)c1ccccc1[N+](=O)[O-])Nc1ccc(Cl)cc1	3	-14	3	3.7
20	COc1ccc(NC(=O)N2CCCC(C(=O)NC(C)C)C2)cc1 (configuration not stated)	4	-12	-6	1.4
21	CCC1CCCCN1C(=O)COC(=O)CSc1ccc(C(N)=O)cc1[N+](=O)[O-] (configuration not stated)	9	-9	.	-2.2
22	COCCN(C(=O)COC(=O)COc1ccc2c(c1)CCC2)c1c(N)n(Cc2ccccc2)c(=O)[nH]c1=O	4	-10	-9	4.1
23	CCOC(=O)c1cnc2c(C(F)(F)F)cccc2c1N1CCN(C)CC1	2	-3	5	0.4
24	Cc1ccccc1NC(=O)CC1SC(=Nc2ccc(O)cc2)NC1=O (configuration not stated)	11	-9	-8	3.0

No.	Mtb hypoxia rep	Sa ugtP lethal	Bead autofluor
17	-4	-22	4261
18	2	2	3069
19	2	3	2625
20	6	1	3157
21	-12	-2	3828
22	10	6	?
23	9	4	3080
24	17	2	5011

# Additional entries:
No.	SMILES	Mtb hypoxia rep growth	PrP UTR inh	BJeLR viability	RN4220 kill
25	Cc1cc(C(C)(C)C)cc(S(=O)(=O)Nc2ccc(O)c(C(=O)O)c2)c1C	7	-11	-3	5.1
26	CC(C)Cn1c(SCC(=O)NC2CCCc3ccccc32)nc(O)cc1=O (configuration not stated)	.	-2	8	2.3
27	COc1cccc(C(=O)Nc2nnc(S(=O)(=O)N3CCCC3)s2)c1	7	-16	-2	3.1
28	CN1CCC2(CC1)N=C(c1ccc(F)cc1)C(=S)N2C(=O)c1ccc(C(C)(C)C)cc1	4	-18	-5	5.9
29	O=C(CCS(=O)(=O)c1ccc(Br)cc1)N1CCCCCC1	5	-11	-4	-1.5
30	Cc1ccc(-c2nnc(NCCCO)c3ccccc23)cc1	14	-15	-16	1.6
31	COC(=O)c1ccc2c(c1)NC(=O)CS2	14	-19	15	12
32	CCn1c(SCC(=O)c2c(N)n(C)c(=O)n(C)c2=O)nnc1-c1ccccc1	-4	.	2	2.3

No.	Mtb hypoxia rep	Sa ugtP lethal	Bead autofluor
25	5	1	20140*
26	.	-3	4717
27	0	9	5852
28	9	4	2499
29	-13	-5	4410
30	9	-7	4186
31	3	6	4295
32	1	3	.

# Other results follow:
No.	SMILES	Mtb hypoxia rep growth	PrP UTR inh	BJeLR viability	RN4220 kill
33	O=C(NCC(c1cccnc1)N1CCN(c2ccccc2F)CC1)c1ccccc1 (configuration not stated)	9	-5	0	-11
34	O=C1CN(c2ccccc2)C(=S)N1C(=O)c1ccccc1	.	-74	4	.
35	COc1cccc(CNC(=O)COc2cc3c(c4oc(=O)cc(C)c24)CCC(C)(C)O3)c1	.	-58	-20	2.5
36	CCCCc1nc2ccccc2c(=O)n1NC(=O)c1c(O)c2ccccc2n(C)c1=O	4	-20	.	13
37	O=C(O)C(=O)/C(=C\c1cccc2ccccc12)c1ccc2ccccc2n1	.	-29	-13	0.7
38	CC(C)(C)NC(=O)C(c1ccccc1)N(C(=O)C1CSC(=O)C1)c1ccccc1 (configuration not stated)	2	-9	-3	5.0
39	COc1ccccc1NC(=O)Nc1nc(CC(=O)NCc2ccc(F)cc2)cs1	0	-4	1	5.3
40	COC(=O)C1=CN(Cc2ccc(OC)c(OC)c2)C=C(C(=O)OC)C1c1ccccc1F	2	0	11	3.8

No.	Mtb hypoxia rep	Sa ugtP lethal	Bead autofluor
33	7	-4	6831
34	.	.	4485
35	.	-3	5214
36	-6	1	1929
37	.	-2	4967
38	8	5	9376
39	-7	1	?
40	5	9	4182

# Some of these compounds in order of molecular weight, ascending:
No.	SMILES	Mtb hypoxia rep growth	PrP UTR inh	BJeLR viability	RN4220 kill
37	O=C(O)C(=O)/C(=C\c1cccc2ccccc12)c1ccc2ccccc2n1	.	-29	-13	0.7
38	CC(C)(C)NC(=O)C(c1ccccc1)N(C(=O)C1CSC(=O)C1)c1ccccc1 (configuration not stated)	2	-9	-3	5.0
36	CCCCc1nc2ccccc2c(=O)n1NC(=O)c1c(O)c2ccccc2n(C)c1=O	4	-20	.	13

No.	Mtb hypoxia rep	Sa ugtP lethal	Bead autofluor
37	.	-2	4967
38	8	5	9376
36	-6	1	1929

# The results go on:
No.	SMILES	Mtb hypoxia rep growth	PrP UTR inh	BJeLR viability	RN4220 kill
41	Cc1ccc(O)c(NC(=O)c2cc([N+](=O)[O-])ccc2Cl)c1	-9	-2	0	2.6
42	Cc1cc(SCC(=O)OCC(=O)NC(C)c2ccccc2)c(C)cc1Br (configuration not stated)	10	-7	-1	8.6
43	O=C(NCCN1CCOCC1)c1ccc2c(c1)ncn2C1CCCC1	1	-33	-10	5.8
44	Cc1c(/C=N/O)c2ccccn2c1C=O	.	-17	0	.
45	CCOC(=O)N1CCN(C(=O)CSCC(=O)N=c2sc3cc(OC)ccc3n2C)CC1	7	-16	.	7.2
46	COc1ccc(-c2nnc(SCC(=O)NC(=O)NCc3ccccc3)o2)cc1	6	-19	1	6.7
47	COCCCn1c(C(=O)NCCN2CCOCC2)cc2c(=O)n3ccccc3nc21	-2	4	-2	1.1
48	O=C(CN1CCN(c2ccccn2)CC1)Nc1ccccc1Br	7	-26	-6	3.1

No.	Mtb hypoxia rep	Sa ugtP lethal	Bead autofluor
41	-4	1	4554
42	7	10	2381
43	5	-10	5922
44	.	.	3906
45	11	3	4441
46	9	-9	2943
47	1	1	5625
48	-8	14	3407

# Of the compounds above, 4 have a COOH group:
No.	SMILES	Mtb hypoxia rep growth	PrP UTR inh	BJeLR viability	RN4220 kill
3	O=C(O)CCc1nn2c3ccccc3n(CCN3CCCCC3)c2nc1=O	-4	-15	2	1.0
14	CC(C)C[C@H](NC(=O)[C@H]1N2C(=O)c3ccccc3C2SC1(C)C)C(=O)N[C@@H](Cc1ccccc1)C(=O)O (some centres not stated)	.	-15	-3	5.2
25	Cc1cc(C(C)(C)C)cc(S(=O)(=O)Nc2ccc(O)c(C(=O)O)c2)c1C	7	-11	-3	5.1
37	O=C(O)C(=O)/C(=C\c1cccc2ccccc12)c1ccc2ccccc2n1	.	-29	-13	0.7

No.	Mtb hypoxia rep	Sa ugtP lethal	Bead autofluor
3	5	6	17537*
14	.	-11	5688
25	5	1	20140*
37	.	-2	4967

# Returning to the listing with the 3 entries that preceded the break.
No.	SMILES	Mtb hypoxia rep growth	PrP UTR inh	BJeLR viability	RN4220 kill
46	COc1ccc(-c2nnc(SCC(=O)NC(=O)NCc3ccccc3)o2)cc1	6	-19	1	6.7
47	COCCCn1c(C(=O)NCCN2CCOCC2)cc2c(=O)n3ccccc3nc21	-2	4	-2	1.1
48	O=C(CN1CCN(c2ccccn2)CC1)Nc1ccccc1Br	7	-26	-6	3.1
49	O=[N+]([O-])c1cnc(Nc2ccc(Cl)cn2)c([N+](=O)[O-])c1	2	-19	13	28
50	O=C1NCCN1c1ccccc1	8	-31	.	6.4
51	O=C(COc1ccccc1)Nc1ccccc1F	9	-51	4	0.8
52	CSc1ccc(OC2CCCCC2NS(=O)(=O)c2ccc(Cl)cc2)cc1 (configuration not stated)	7	-6	-2	3.8
53	CC(Sc1n[nH]c(-c2cccs2)n1)C(=O)Nc1ccc(C(N)=O)cc1 (configuration not stated)	0	-26	.	4.7
54	Cc1ccc(/C=N/NC(=O)c2csc3c2CCCC3)cc1	.	18	35	.
55	COc1ccc([N+](=O)[O-])cc1NCc1cccc([N+](=O)[O-])c1	2	-12	-10	4.5
56	Cc1ccc(C(=O)N2CCOCC2)cc1Cl	6	-14	-17	6.6

No.	Mtb hypoxia rep	Sa ugtP lethal	Bead autofluor
46	9	-9	2943
47	1	1	5625
48	-8	14	3407
49	11	43	3708
50	5	-6	3646
51	3	11	.
52	0	-15	2345
53	6	4	8114
54	.	.	2132
55	8	-7	2457
56	15	4	8986

# More structures follow.
No.	SMILES	Mtb hypoxia rep growth	PrP UTR inh	BJeLR viability	RN4220 kill
57	Cc1cccc(-c2noc(-c3ccno3)n2)c1	6	-51	-16	7.4
58	CCCCn1c(N)c(C(=S)NC(=O)CC(C)C)c(=O)n(C)c1=O	6	-24	.	16
59	CON(C)C(=O)CCC1CCCN1C(=O)OC(C)(C)C (configuration not stated)	6	-28	.	0.8
60	COc1cc(NC(=O)c2cccc([N+](=O)[O-])c2)ccc1NC(=O)c1cc2ccccc2o1	.	8	1	.
61	CCOc1ccccc1N(CC(=O)Nc1cccc(OC)c1)S(=O)(=O)c1ccccc1	4	-2	-6	-0.7
62	COc1ccc2c(c1)nc(NCCCO)n2Cc1ccccc1	3	-12	5	0.0
63	Cc1oc(-c2ccccc2)cc1C(=O)NCc1ccncc1	9	7	4	-2.1
64	CC(=O)N1N=C2C3CCN(CC3)C2C1c1ccc(Br)cc1 (configuration not stated)	4	-8	7	3.3
65	Fc1ccc(COc2ccc(-c3nnco3)cc2)c(Cl)c1	1	-28	-7	-3.8
66	COC(=O)C(O)(c1ccc(NC(=O)c2cccs2)cc1)C(F)(F)F (configuration not stated)	23	.	6	1.2

No.	Mtb hypoxia rep	Sa ugtP lethal	Bead autofluor
57	4	13	6154
58	10	3	10730
59	3	5	3903
60	.	.	4462
61	1	-1	3764
62	3	13	3949
63	3	-4	4149
64	3	2	?
65	-7	-8	4224
66	0	-7	6055
